# Assay outcomes (PubChem)
# Calb FLC – affects C. albicans growth with fluconazole; AID 1979; growth inhibition, % (test concentration not listed); C. albicans CaCi-2 (fluconazole-resistant clinical isolate) + fluconazole, Alamar Blue growth, 48 h; hit rate 0.57% among 300,000;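 active means most replicates above 75%; inconclusive means exactly half above 75%; inactive means most below 75%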;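 further: all wells also contain fluconazole at 8 µg/ml as a sub-toxic cotreatment; 0% = median of DMSO wells and 100% = median of geldanamycin control wells; wells of about 8 µL received 7.5 nL stock; the first replicate is given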
# RanGTP-Impb inh – disruptors of Ran-importin-beta complex formation – biochemical, FRET, CFP-Ran, YFP-importin-beta, homogeneous, primary screen | inhibition, % (concentration not given with the values) | hit rate 1.1% among 300,000 | cell-free CFP-Ran/YFP-importin-beta FRET ratio;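 active means most replicates above 15%; inconclusive means exactly half above 15%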;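 further: 0% = DMSO wells and 100% = Ran loaded with GDP instead of GTP; wells of about 40 µL received 100 nL stock; the first replicate is given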
# Vif TR-FRET – inhibitors of Vif binding to APOBEC3G peptide, primary screen, biochemical, TR-FRET, GST-Vif 1-94, biotin-A3G peptide, dose response retest (AID 1117319); TR-FRET GST-Vif / biotin-A3G peptide binding; higher % means a stronger effect; test concentration not given here; strong numbers were not always called active; one-dose inhibition, %; IC50 in µM for titrated hits; hit rate 0.57% among 260,000;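 active means above the screen mean plus three standard deviations and confirmed in dose response; inconclusive means results disagree or hit not tested in dose response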;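 further: Vif residues 1-94 fused to GST binding biotinylated APOBEC3G peptide 110-148; 0% = full assay without inhibitor and 100% = GST in place of GST-Vif; retest series ran down from 100 µM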
# AF4-AF9 inh – blocks AF4 peptide binding to human AF9; P42568; AlphaScreen, biotin-AF4 peptide binding to FLAG-AF9; inhibition, % at 10 µM; hit rate 0.47% among 350,000; AID 651704;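 active means every replicate reaching a set inhibition limit, whatever the replicate mean, cut at about 25% in these data; inconclusive means mean inhibition reaches that limit but some replicates miss it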;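 further: 0% = plate neutral control median and 100% = total signal loss; the record names both 10 and 1 µM as test concentration; the first replicate is given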
# LANA-H2A inh – blocks KSHV LANA binding to histone H2A/H2B | AID 2629 | inhibition, % (concentration not given with the values) | hit rate 0.6% among 320,000 | Q9QR71 | cell-free LANA-H2A/H2B peptide, fluorescence polarization; in the data active means inhibition mostly above about 10%, no sharp cut-off; inactive means mostly below about 6.7%;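 further: stock transfer was 7.5 nL into about 10 µL; 0% = median of vehicle wells and 100% = median of positive control wells; one replicate is shown; the record names a cut of 25% in any replicate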
# Target sequence (Q9QR71 whole entry, looked up): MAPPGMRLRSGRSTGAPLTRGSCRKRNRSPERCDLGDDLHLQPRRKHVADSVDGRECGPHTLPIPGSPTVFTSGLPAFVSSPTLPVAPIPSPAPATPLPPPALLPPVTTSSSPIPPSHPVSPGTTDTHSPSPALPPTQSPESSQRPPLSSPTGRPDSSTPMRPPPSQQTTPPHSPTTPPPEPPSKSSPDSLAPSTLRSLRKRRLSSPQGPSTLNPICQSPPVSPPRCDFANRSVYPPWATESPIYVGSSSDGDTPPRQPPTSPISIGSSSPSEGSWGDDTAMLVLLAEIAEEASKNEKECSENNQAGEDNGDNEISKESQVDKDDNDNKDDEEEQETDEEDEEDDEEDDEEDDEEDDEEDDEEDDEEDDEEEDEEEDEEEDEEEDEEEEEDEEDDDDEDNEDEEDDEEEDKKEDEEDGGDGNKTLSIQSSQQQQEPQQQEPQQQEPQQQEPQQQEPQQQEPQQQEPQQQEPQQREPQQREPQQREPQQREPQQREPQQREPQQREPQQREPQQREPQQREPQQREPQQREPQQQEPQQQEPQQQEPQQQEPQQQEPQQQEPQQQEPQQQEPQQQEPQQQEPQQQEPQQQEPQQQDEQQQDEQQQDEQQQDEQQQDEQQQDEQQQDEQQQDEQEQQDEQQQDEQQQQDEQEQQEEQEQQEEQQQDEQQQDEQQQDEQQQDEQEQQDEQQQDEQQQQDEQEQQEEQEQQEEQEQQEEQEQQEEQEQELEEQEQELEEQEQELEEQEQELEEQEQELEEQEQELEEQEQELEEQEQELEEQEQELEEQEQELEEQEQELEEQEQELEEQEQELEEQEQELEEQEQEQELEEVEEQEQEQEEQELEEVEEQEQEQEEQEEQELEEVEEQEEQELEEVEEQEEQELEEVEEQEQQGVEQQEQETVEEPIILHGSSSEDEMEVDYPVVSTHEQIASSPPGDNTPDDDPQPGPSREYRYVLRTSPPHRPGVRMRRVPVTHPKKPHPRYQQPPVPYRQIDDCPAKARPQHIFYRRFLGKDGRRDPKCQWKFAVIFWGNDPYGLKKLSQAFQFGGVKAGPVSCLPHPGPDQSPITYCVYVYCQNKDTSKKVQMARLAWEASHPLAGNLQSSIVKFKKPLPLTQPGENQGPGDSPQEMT
# Beta apoptosis – beta cell apoptosis inhibition; INS-1E cytokine-induced death, ATP luminescence, 48 h; percent of positive-control rescue, neutral wells zero; protection from apoptosis, % (test concentration not listed); hit rate 0.8% among 300,000; AID 435005;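 active means all replicates at 75% or more, or half of them and the mean; inconclusive means half reach 75% but not the mean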;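 further: 0% = cytokine-treated negative control wells and 100% = positive control rescue; higher means more ATP so stronger rescue from cytokine killing; wells of about 40 µL received 100 nL stock; the first replicate is given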
# T cruzi inh – T. cruzi replication inhibition; T. cruzi beta-gal in NIH3T3, luminescence, 90 h; inhibition, % (concentration not given with the values); hit rate 1.4% among 300,000; AID 1885;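 active means mean inhibition across valid replicates above about 55%, limit read from the data; inconclusive means mean below that limit but half or more replicates reach it; inactive means mean below it, under half of replicates reach it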;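 further: signal also drops with host cell toxicity which is not excluded here; 0% = plate median of DMSO wells and 100% = zero luminescence signal; higher percent means less beta-gal luminescence so fewer parasites; stock transfer was 50 nL into about 50 µL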
# Bfl-1 A1 inh – inhibitors of the anti-apoptotic protein A1, read as caspase activation. caspase activation, % (no concentration beside the values). MEF A1-2A-BIM cells, Caspase-Glo 3/7 luminescence, 3 h; percent of clofoctol response, vehicle zero. hit rate 0.066% among 330,000. AID 2462;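 active means over half of replicate activation scores above 10%, or exactly half above 10 with the replicate mean above 10; inconclusive means replicate mean below 10 yet half the replicates above 10; inactive means over half of replicates below 10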;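 further: wells of about 30 µL received 50 nL stock; many hits fall short of the cut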
# * marks the source's active call; other numbers are inactive results; u = inconclusive; x = not tested or not shown; & = joins results of further samples. Not a hit list. About 4.3% of those tested had a hit in this group.
SMILES,Calb FLC,RanGTP-Impb inh,Vif TR-FRET,AF4-AF9 inh,LANA-H2A inh,Beta apoptosis,T cruzi inh,Bfl-1 A1 inh
CC1(C)CC(NC(=O)COc2ccc(Br)cc2Cl)CC(C)(C)N1,3,-2.4,x,0.1,8.3,x,13,-0.3
COc1ccc(C(=O)C(C)Oc2cccc(NC(=O)c3cccc([N+](=O)[O-])c3)c2)cc1 (stereo not given),-11,4.3,u,x,1.2,5,10,-0.4
CCCCn1cnc2c(oc3nc4c(cc32)CCCC4)c1=O,38,1.6,32%,x,-4.7,-10,29,-7.1
C=CCNC(=O)c1onc(CSc2ccc(F)cc2)c1C(=O)O,-16,0.8,3%,-4.0,0.3,-7,-13,1.4
Cc1nc2ccccc2c(=O)n1-c1ccc(NS(=O)(=O)c2cc(F)ccc2F)cc1,27,3.5,14%,-1.5,3.4,x,-12,0.7
Cc1cccc(-n2ncc3c(Nc4c(C)n(C)n(-c5ccccc5)c4=O)ncnc32)c1,3,-0.1,-2%,14,1.6,2,6,-0.4
c1ccc(CN(Cc2ccccc2)c2ncnc3c2nnn3Cc2ccccc2)cc1,-5,0.3,1%,3.0,0.4,2,29,0.4
O=C(COC(=O)c1ccccc1F)Nc1cccnc1Cl,2,u,0%,-0.7,8.0,-6,-3,-0.7
COc1cc(NC(=O)C2CC(=O)NC3=C2C(=O)CC(C)(C)C3)c(OC)cc1Cl (stereo not given),4,4.0,10%,x,0.4,4,1,-0.5
CC(C)(C)[C@H]1COC(=O)CCCC/C=C\C[C@H](CC(=O)NCCO)C(=O)N1,x,x,x,1.0,1.2,6,x,0.8
Cc1ccc(-c2noc(C3CCCN(S(=O)(=O)c4ccc(S(=O)(=O)N(C)C)cc4)C3)n2)o1 (stereo not given),1,3.4,6%,-1.0,-1.8,6,-2,0.6
COc1ccc(/C=C2\OC(=O)c3c(OC)cccc32)cc1OC,-4,39*,-1%,x,-0.9,8,-10,0.5
Clc1ccc2c(c1)C(c1cccs1)=NNC(c1cccnc1)=N2,90*,-1.7,26%,x,-1.5,-1,5,-0.2
OC(Cn1cncn1)c1ccc(Cl)cc1Cl (stereo not given),-4,-2.8,-5%,x,0.2,-7,-5,1.6
CC(C(=O)O)N1C(=O)CSc2ncccc21 (stereo not given),-4,3.5,20%,x,-3.7,2,3,0.2
CCOc1ccc(-c2nc(-c3cccnc3)no2)cc1OCC,10,-5.8,1%,x,-2.6,-3,-1,0.1
O=C(Nc1nnc(SCC(=O)N2CCCCC2)s1)C1CCCCC1,-12,u,u,x,4.6,-8,-6,-1.0
O=C(CN1C(=O)CCC1=O)Nc1ccc(S(=O)(=O)N2CCOCC2)cc1,19,u,13%&0%,x,1.8,x,-28,-0.3
CN(CCOc1ccc(Cl)c(Cl)c1)Cc1ccccc1,-4,5.0,1%,9.7,-3.2,x,29,-0.2
Cc1c(C(=O)NNc2cc(=O)n(C)c(=O)n2C)cccc1[N+](=O)[O-],1,6.2,-12%,1.9,2.0,2,2,0.8
COc1ccc(S(=O)(=O)N(C)C[C@@H]2Oc3ccc(NS(C)(=O)=O)cc3C(=O)N([C@@H](C)CO)C[C@H]2C)cc1,x,x,x,-2.4,1.6,6,x,-0.6
COc1ccc2nc(NC(=O)CSc3ccccc3)sc2c1,-2,-5.6,0%,x,0.1,x,3,-2.3
Cc1nonc1C1CCCN1Cc1nc(-c2ccccc2Cl)oc1C (stereo not given),-3,0.4,11%,u,-2.4,0,23,0.3
Cc1nc2ccccc2n1-c1ccccc1,4,-0.6,-5%,x,3.6,-5,-31,-0.9
COCCn1nnnc1CN(CCCN1CCOCC1)Cc1cc2c(C)ccc(C)c2[nH]c1=O,35,8.4,u,x,x,x,5,x
O=c1ccc(-c2ccccc2)n[nH]1,18,7.6,28%,2.2,7.9,2,-4,0.6
CCOCC(=O)N1CCN(c2ccc([N+](=O)[O-])cc2)CC1,4,-1.8,26%,x,1.2,2,7,0.2
Cn1nc(C(F)(F)F)c(C(=O)Nc2ccc(F)cc2F)c1Cl,-1,1.6,-10%,-1.6,3.9,5,-6,-0.2
COc1ccccc1NS(=O)(=O)c1ccc(C)c(C(N)=O)c1,-10,-0.4,1%,x,1.4,-4,-14,1.0
O=C(NC1CCCC1)c1ccc([N+](=O)[O-])s1,-4,3.8,-12%,0.0,-6.0,61,72*,0.9
COC(=O)Cc1ccc(NC(=S)Nc2ccc(N3CCOCC3)cc2)cc1,-7,-0.3,u,1.3,0.1,1,-2,-0.3
O=C1CCN(CCc2ccccc2)CCN1[C@H](CO)c1ccccc1,-10,-1.8,x,-6.7,1.5,-7,-6,0.9
CC1Cc2ccccc2N1C(=O)CCN1C(=O)C2C3C=CC(C3)C2C1=O (stereo not given),5,-2.2,-5%,x,2.3,x,1,-0.5
CCCNS(=O)(=O)c1ccc(CCC(=O)NCC2CCCO2)cc1 (stereo not given),-6,u,16%,x,2.0,-9,0,0.8
O=C(Nc1ccc(NC(=O)c2ccc([N+](=O)[O-])o2)cc1Cl)c1ccco1,-1,-2.6,x,2.3,0.9,0,13,-1.8
O=C(/C=C/c1ccccc1[N+](=O)[O-])NCc1ccc(Cl)cc1,-26,-0.7,1%,-2.3,0.8,3,10,1.0
COc1ccc(S(=O)(=O)N(CC(=O)Nc2cccnc2)c2ccccc2OC)cc1,-12,-0.8,-9%,7.2,-1.7,1,-5,0.1
CC(=O)Nc1ccc(S(=O)(=O)N2CCN(C(=O)CCC3CCCC3)CC2)cc1,-14,0.5,13%,x,-0.5,-1,-6,-0.4
O=C1C2C3C=CC(CC3)C2C(=O)N1/N=C/c1ccc(O)cc1 (stereo not given),4,1.0,3%,-42,-0.7,-5,-5,0.7
CCNC(=S)NN=C1c2ccccc2-c2ccccc21,19,-2.8,x,20,2.8,x,11,0.2
COc1cc(OC)cc(C(=O)NCC2CCCN(C(=O)c3csc(C)n3)C2)c1 (stereo not given),3,8.3,x,0.1,-0.2,-2,-12,0.1
CCOc1ccc(Cn2c(SCCCCC#N)nc3c2c(=O)n(C)c(=O)n3C)cc1OCC,-3,2.8,6%,x,1.0,-6,-4,0.0
COC(=O)c1ccc(CN2CCN(CCc3ccccc3)C(CCO)C2)cc1 (stereo not given),-17,1.1,29%,8.0,5.1,-8,23,0.4
COC(=O)COc1ccc(S(=O)(=O)N2CCN(c3ccccc3F)CC2)cc1,2,-2.5,6%,x,0.3,-6,-4,0.2
CSc1nc(N(CCO)CCO)c2sc3nc(-c4ccco4)c4c(c3c2n1)CCC4,50,-4.0,>35µM*,x,x,x,17,x
CCOC(=O)c1nnn(-c2nonc2N)c1-c1ccccc1Cl,-8,-1.2,9%,-0.2,-5.9,-3,-8,0.5
Cc1cccc(C(=O)N2CCC(c3nc(-c4ccc(S(=O)(=O)N5CCOCC5)cc4)no3)CC2)c1,-7,1.0,2%,x,2.4,2,-3,0.0
CC(C)n1c(Nc2ccccc2)nc2ccccc21,2,0.2,-4%,x,2.9,0,-18,-0.1
Cc1ccc(-n2c(C)cc(C(=O)OCC(=O)N(CC(C)C)C3CCS(=O)(=O)C3)c2C)cc1 (stereo not given),34,-2.1,>100µM*,x,-1.2,3,8,0.0
CCOc1ccc(-n2nnc3c(=O)n(C/C=C/c4ccccc4)cnc32)cc1,-5,3.5,4%,3.6,2.5,0,24,0.0
COc1ccc(CSc2nc(CSC)cc(N3CCOCC3)n2)cc1,-10,-4.5,1%,-32,1.4,-11,14,0.4
Cc1ccccc1NC(=O)CSc1nc2c(c(-c3ccco3)c1C#N)CCCC2,1,2.1,0%,6.0,3.0,-4,24,0.4
COc1ccc(C(CC(=O)O)NC(=O)COc2ccccc2OC)cc1OC (stereo not given),9,4.2,17%,x,-9.6,1,-15,0.1
COc1ccc2[nH]c(=O)c(CN(Cc3ccccc3OC)Cc3nnnn3CC3CCCO3)cc2c1 (stereo not given),2,3.9,u,x,0.4,-3,21,-0.1
N#CCCN(C(=O)COC(=O)C1CCN(c2ccc(C(F)(F)F)cn2)CC1)c1ccc(F)cc1,0,u,-1%,-2.1,-2.5,5,-11,0.6
O=C(CSc1nnc(CNC(=O)c2ccc(F)cc2)o1)Nc1ccc2c(c1)OCO2,x,x,2%,-2.0,-3.9,10,-1,0.8
Cc1ccc(OCC(=O)NN2C(=O)c3ccccc3C2=O)cc1,1,u,6%,4.9,5.0,-5,-10,0.3
CCOCCCn1c(SCC(=O)Nc2cccc(OC)c2)nc2ccccc2c1=O,5,0.4,x,-9.1,2.2,6,2,0.7
Cc1cc(Cl)ccc1NC(=O)C(=O)N/N=C/c1ccc2c(c1)OCO2,-6,-0.7,-5%,-0.3,-3.8,3,-2,-0.2
CN1CC2([N+](=O)[O-])CC=C(Oc3ccccc3)C([N+](=O)[O-])(C1)C2 (stereo not given),-1,8.6,27%,x,-1.6,-5,3,-0.2

# The list continues.
SMILES,Calb FLC,RanGTP-Impb inh,Vif TR-FRET,AF4-AF9 inh,LANA-H2A inh,Beta apoptosis,T cruzi inh,Bfl-1 A1 inh
CCOC(=O)c1cnc(-n2nc(C)cc2C)nc1-n1nc(C)cc1C,4,4.0,7%,x,-3.8,1,-16,0.3
CCOc1cccc(C2/C(=C(/O)c3ccc4c(c3)CC(C)O4)C(=O)C(=O)N2CCCn2ccnc2)c1 (stereo not given),21,1.1,4%,-2.4,-2.3,-3,-4,-1.5
Cc1ccc2c(c1)NC(=O)[C@@]1(C)[C@@H](c3ccccc3)[C@H]3COc4ccc(Cl)cc4[C@@H]3N1C2=O,x,x,x,2.4,-2.7,-6,x,0.1
O=C(c1ccc(-c2cccc(Cl)c2Cl)o1)N1CCOCC1,-1,-3.9,x,1.9,-2.3,-6,-7,-3.1
C[C@H](NC(=O)[C@@H]1Cc2ccccc2CN1)C(=O)NCC1CCCO1 (stereo not given in full),1,-5.2,-4%,-0.3,0.5,0,-8,0.3
O=S1(=O)C=C(Oc2ccc3ccccc3c2)c2ccccc21,-2,-0.9,1%,x,-3.2,8,-8,-0.2
CCc1cc2c(SCc3ccc(C(=O)OC)o3)ncnc2s1,1,6.7,x,-16,1.5,-6,-1,0.0
COCCn1c(SCC(=O)c2ccc(CNC(C)=O)o2)nc2ccccc2c1=O,-14,-3.8,26%,x,-0.7,-2,-9,0.5
O=c1cc(NS(=O)(=O)c2ccccc2)nc(SCc2c(Cl)cccc2Cl)[nH]1,2,5.5,x,1.3,1.1,-6,-22,1.1
Cc1ccnc2nc(NC(=O)c3ccco3)nn12,-2,0.0,-5%,-4.9,x,x,0,x
CC(=O)Nc1ccc(SCc2ncc(-c3ccccc3)o2)cc1,8,-6.6,x,4.6,1.7,-5,1,1.1
COc1ccc2ccccc2c1/C=N/NC(=O)c1ccc(C)nc1,4,5.0,1%,5.6,-4.7,-1,-2,-1.2
CN(C)c1ccc(/C=N/NC(=O)C(O)c2ccc(Br)cc2)cc1 (stereo not given),-64,-0.7,19%,-0.5,-4.3,-8,-15,0.1
